Screening data: PubChem BioAssay, National Center for Advancing Translational Sciences (NCATS)
VDR inhibitor = Inhibitors of the vitamin D receptor (VDR): qHTS. Vitamin D3 receptor (Homo sapiens), P11473. VDR-SRC2-3 peptide fluorescence polarization, 2 h. Potency, µM, without a hit: max response, negative = inhibition, most hits filed as inhibitors. hit rate 0.93% among 400,000; active means well fitted inhibition curve with a large enough effect; inconclusive means small, poorly fitted or top-dose-only effect, or another doubt; inactive means no such curve, though single readings can be large or run the other way; further: series mostly up to about 120 µM
Target sequence (P11473 whole entry, looked up): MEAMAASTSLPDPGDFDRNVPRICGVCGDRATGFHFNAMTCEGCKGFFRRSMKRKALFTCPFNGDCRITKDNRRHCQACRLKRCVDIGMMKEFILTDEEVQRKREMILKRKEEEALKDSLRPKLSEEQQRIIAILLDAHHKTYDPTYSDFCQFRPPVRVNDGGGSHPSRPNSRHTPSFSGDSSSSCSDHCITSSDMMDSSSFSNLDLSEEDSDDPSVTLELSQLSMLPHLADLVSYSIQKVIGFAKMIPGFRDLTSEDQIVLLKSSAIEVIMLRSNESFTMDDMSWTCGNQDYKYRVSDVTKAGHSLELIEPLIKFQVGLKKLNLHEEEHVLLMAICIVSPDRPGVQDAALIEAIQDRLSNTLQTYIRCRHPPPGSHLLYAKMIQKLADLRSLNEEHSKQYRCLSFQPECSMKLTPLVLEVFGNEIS
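Signal is fluorescence polarization, reporting how far test compounds block the interaction of VDR with the SRC2-3 coregulator peptide after a 2 h room-temperature incubation.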
Active calls of the source: *; ? = inconclusive; & = joins results of further samples. On the % scale 0 is the no-effect control and ±100 the full control effect; potency means the concentration at half of the fitted maximal effect. Only part of the results is shown, so the mix of outcomes need not match the whole.

SMILES	VDR inhibitor
CC(C)C[C@@H](CC(=O)N[C@@H](CCC(=O)O)CC(=O)O)NC(=O)[C@@H]1CCCC[C@H]1NC(=O)C[C@@H](NC(=O)C[C@H](Cc1c[nH]c2ccccc12)NC(=O)[C@@H]1CNCC[C@H]1N)C(C)C	2.3%
CC(C)(C)NC(=O)COc1ccc(CNCc2ccccn2)cc1	-6.0%
COc1ccc(NC(=O)CSc2nnc(NC(=O)Nc3ccccc3)s2)c(OC)c1	11.2%
CCOc1ccc(C(=O)NCCc2csc(-c3ccc(C(F)(F)F)cc3)n2)cc1OCC	1.6%
CCN(CC)Cc1c(C(=O)N/N=C/c2cccc(OCc3cccc(Cl)c3)c2)nnn1-c1nonc1N	-4.2%
COc1cc(-c2nnc(COC(=O)C3c4ccccc4Oc4ccccc43)o2)cc(OC)c1OC	-0.3%
CC1=Nc2ccc(C)cc2/C1=C/c1c(N)n2nc(CC(=O)N3CCOCC3)sc2nc1=O	7.7%
COCCn1c(=O)c(-c2ccc(F)cc2)nc2cncnc21	1.8%
Cc1ccc(NS(=O)(=O)c2ccc3c(c2)oc(=O)n3C)cc1	-17.4%
CCCCc1ccc(NC(=O)CSc2nc(=O)n(CCN3CCOCC3)c3c2CCC3)cc1	-6.7%
O=C(N/N=C\c1c(O)ccc2ccccc12)c1ccc(Cn2cccn2)o1	-1.4%
Cc1ccc(C2=[N+]([O-])C(C)(C)N(O)C2(C)C)cc1	-25.6%
Cc1ccc(NC(=O)CCN2C(=O)CSC2=O)cc1	3.2%
CCC(C)(C)NC(=O)C(OC(=O)c1ccco1)c1ccccc1OC (centres undefined)	-15.6%
CCOC(=O)c1ccc(N2C(=O)CC(N3CCN(C(=O)c4ccccc4)CC3)C2=O)cc1 (centres undefined)	-0.7%
COc1ccc(CCNC2=CC(=O)N(c3ccc(F)cc3)C2=O)cc1	2.7%
O=C(O)COc1cccc(NC(=O)c2ccccc2)c1	6.4%
Cc1ccccc1OCCn1cc(C(=O)O)c2ccccc21	4.4%
O=C(CNC(=O)Cn1cnc2sc3c(c2c1=O)CCCC3)NCc1ccccn1	-6.8%
C=CCn1c(CSCc2ccc(Cl)cc2Cl)nnc1SCC(=O)Nc1ccc(C(=O)O)cc1	26.8%

Sorted by SMILES length (descending): 3 of the compounds above.
SMILES	VDR inhibitor
CC(C)C[C@@H](CC(=O)N[C@@H](CCC(=O)O)CC(=O)O)NC(=O)[C@@H]1CCCC[C@H]1NC(=O)C[C@@H](NC(=O)C[C@H](Cc1c[nH]c2ccccc12)NC(=O)[C@@H]1CNCC[C@H]1N)C(C)C	2.3%
COc1ccc(CCNC2=CC(=O)N(c3ccc(F)cc3)C2=O)cc1	2.7%
Cc1ccccc1OCCn1cc(C(=O)O)c2ccccc21	4.4%

Remaining list, next part
SMILES	VDR inhibitor
O=C(NCCCN1CCCC1=O)C(=O)NCC1OCCN1S(=O)(=O)c1ccc(Cl)cc1 (centres undefined)	-15.4%
COc1ccc(OC)c(CC(NC(C)=O)C(=O)NC2CCN(c3nnnn3-c3ccccc3)CC2)c1 (centres undefined)	-7.8%
COc1ccc(CC(=O)NCc2ccc3c(c2)CCN3C(C)=O)cc1	14.0%
O=C(O)c1cccc(S(=O)(=O)Nc2ccc(O)c(Sc3nc4ccccc4s3)c2)c1	-27.3%
O=C(c1cnccn1)N1CCC2(CC1)CN(c1ccncc1)C2	-12.8%
O=C(Nc1ccccc1)c1ccccc1CCc1ccccc1	-0.5%
CCc1cccc(CC)c1NC(=O)CCS(=O)(=O)c1ccc(Br)cc1	1.4%
N/C(=N\OC(=O)Cc1ccc([N+](=O)[O-])cc1)c1cccc(Br)c1	-19.9%
NC(=S)NN=C1c2ccccc2-c2c(F)c(F)c(F)c(F)c21	79.4µM*
O=C(N[C@@H]1c2ccccc2CC[C@@H]1OCc1ccccc1)c1ccc(-c2ccccc2)cc1	10.1%

The last 7 compounds of the section above lead into the next:
SMILES	VDR inhibitor
O=C(O)c1cccc(S(=O)(=O)Nc2ccc(O)c(Sc3nc4ccccc4s3)c2)c1	-27.3%
O=C(c1cnccn1)N1CCC2(CC1)CN(c1ccncc1)C2	-12.8%
O=C(Nc1ccccc1)c1ccccc1CCc1ccccc1	-0.5%
CCc1cccc(CC)c1NC(=O)CCS(=O)(=O)c1ccc(Br)cc1	1.4%
N/C(=N\OC(=O)Cc1ccc([N+](=O)[O-])cc1)c1cccc(Br)c1	-19.9%
NC(=S)NN=C1c2ccccc2-c2c(F)c(F)c(F)c(F)c21	79.4µM*
O=C(N[C@@H]1c2ccccc2CC[C@@H]1OCc1ccccc1)c1ccc(-c2ccccc2)cc1	10.1%
O=C(CCN1C(=O)/C(=C/c2ccc(Cl)cc2)SC1=S)NC1C=CS(=O)(=O)C1 (centres undefined)	-3.0%
CCOc1ccc(CCNc2nc3ccc(C)cc3n3cnnc23)cc1OCC	9.8%
CC(=O)OC(C(=O)NC1CCCCC1)c1ccccc1 (centres undefined)	-15.2%
CCOC(=O)C1CCN(Cc2ccc(F)cc2)CC1	1.3%
O=C1CCC(=O)N1CCC(c1ccc(F)cc1)c1ccco1 (centres undefined)	-13.7%
Cc1ccc(OC(C)C(=O)Nc2ccccc2C(=O)N2CCOCC2)cc1 (centres undefined)	-11.9%
Nc1c(N(CCO)C(=O)c2ccccc2OCc2ccccc2Cl)c(=O)[nH]c(=O)n1Cc1ccccc1	5.3%
C/C(=C\C(=O)c1ccccc1)Nc1ccc(N2CCOCC2)cc1	-9.6%
CCCCCCc1nnc(NC(=O)c2ccco2)s1	-0.3%
COC(=O)c1ccc(CSc2nnc(NC(=O)C3CCCO3)s2)cc1 (centres undefined)	5.0%
CCOc1cc(C(=O)NC2CCCCCCC2)cc(OCC)c1OCC	-7.8%
CCc1ccc(CN(C)C(=O)c2cc(COc3cc(C)c(Cl)c(C)c3)on2)nc1	12.7%
CCOc1cc(N2CCOCC2)c(OCC)cc1NC(=O)COC(=O)CCOc1ccc(C)cc1	3.5%
Clc1nc(Nc2ccc(N3CCOCC3)cc2)c2ccccc2n1	22.6%
CCN(CC(=O)Nc1ccc(NC(C)=O)cc1)C(=O)C12CC3CC(CC(Cl)(C3)C1)C2	-2.8%
CCOC(=O)C(NC(C)=O)C(=O)Nc1ccc(C(C)(C)C)cc1 (centres undefined)	0.6%
O=[N+]([O-])c1cc(CN2CCN(c3ccccc3)CC2)c(O)c2ncccc12	0.7%
Cc1onc(-c2c(F)cccc2Cl)c1C(O)c1ccc(F)cc1 (centres undefined)	1.4%
O=C(c1cnn(-c2ccccc2)c1)c1cc(Br)ccc1O	-4.5%
O=C(c1ccccc1Cl)N1c2ncnn2C2(CCCCC2)[C@@H]2CCCC[C@@H]21	-2.5%
Cc1onc(-c2c(F)cccc2Cl)c1C(=O)Nc1cccc(Cn2cccn2)c1	-24.9%
CCOc1ccccc1NC(=O)[C@@H](NC(=O)c1cccc(S(=O)(=O)N2CCOCC2)c1)C(C)C	-14.3%
CC(C)c1ccc(NC(=O)CSc2ncccc2C(=O)Oc2cccc([N+](=O)[O-])c2)cc1	-7.4%
COC(=O)C1=NNCC12CC(=O)N(c1ccc(Br)cc1)C2=O (centres undefined)	-19.8%
O=S(=O)(c1ccccc1Br)N1CCN(c2nc(-c3cccs3)nc3ccccc23)CC1	-14.4%
COc1ccc(O)c(CN2CCCC(N3CCc4ccccc4C3)C2)c1 (centres undefined)	-11.6%
Cc1ccc(-n2cc(-c3ccccc3)c3c(NN4CCOCC4)ncnc32)cc1	-10.6%
CCCCCCCNC(=O)C1(CC2CC(c3ccc(Cl)cc3)=NO2)CCN(C(=O)OC(C)(C)C)CC1 (centres undefined)	4.9%
C[C@H](CO)N1C[C@H](C)[C@@H](CN(C)S(=O)(=O)c2ccc(F)cc2)Oc2c(NS(=O)(=O)c3ccccc3)cccc2C1=O	-5.7%
CCOCCCNc1nc2ccccc2[nH]1	8.1%
COc1ccc(NC(=O)Cn2c3ccc(OC)cc3c3nc4n(c(=O)c32)CCS4)cc1	-8.1%
O=C(COC(=O)c1cncc(Br)c1)NCc1ccc2c(c1)OCO2	20.5%
CC(C)(C)c1ccc(OCCCC(=O)Nc2ccc(S(N)(=O)=O)cc2)cc1	-7.1%
O=C(Nc1cc(=O)[nH]c2ncnn12)c1ccccc1Cl	10.3%
Cc1ccc(CSc2ncnc3onc(C)c23)cc1	-11.2%
CCOc1cc(C2CC(=O)Nc3cc(C)c(C)cc32)ccc1O (centres undefined)	0.7%
O=C(NC(=S)NNC(=O)c1ccccc1[N+](=O)[O-])c1ccccc1	?
COc1cnc(-c2ccccc2)nc1Oc1cccc(C)c1C	20.9%
O=C(c1ccc(-c2cccc(C(F)(F)F)c2)o1)N1CCCCCCC1	?
CCn1c(SC)nc2c(c1=O)SC(C)C2 (centres undefined)	-3.9%
CCCc1nc2ccccc2c(C(=O)OCC(=O)NCc2ccc3c(c2)OCO3)c1CC	8.4%
Cc1nnc(C)n1/N=C/c1cc(Br)ccc1O	4.8%
CCN(CC)S(=O)(=O)c1ccc(C(=O)NCCSc2c[nH]c3ccccc23)cc1	-15.7%
Cc1ccc(S(=O)(=O)N=Nc2c(O)[nH]c3ccccc23)cc1C	-18.7%
COc1cccc2cc(C(=O)N(C)C)c(=O)oc12	1.2%
Cc1ccc(CNC(=O)CCNC(=O)c2ccc([N+](=O)[O-])cc2)cc1	-10.9%
O=C(Oc1ccccc1C(=S)N1CCOCC1)c1ccc([N+](=O)[O-])cc1[N+](=O)[O-]	-6.2%
Cc1ccc2oc(-c3cc(NC(=O)/C=C/c4ccco4)ccc3Cl)nc2c1	-0.2%
COc1ccc(S(=O)(=O)N2CCC(N3CCCC3)CC2)cc1	-18.4%
CCC(C)C(NC(N)=O)C(=O)Nc1ccc(S(=O)(=O)Nc2ccc(OC)cc2)cc1 (centres undefined)	-4.0%

Next compounds.
SMILES	VDR inhibitor
CCCC(C)NS(=O)(=O)c1ccc(OC)c(C)c1 (centres undefined)	0.0%
Cc1cccc(CNC(=O)CC2C(=O)NCCN2C2CCCC2)c1 (centres undefined)	-22.5%
O=C(NCC(=O)N(c1ccc(F)cc1)C(C(=O)NC1CCCC1)c1ccncc1)c1ccco1 (centres undefined)	-14.3%
Cc1ccc(C2CC(=O)Oc3ccc(C(C)(C)C)cc32)cc1 (centres undefined)	-0.7%
O=C(O)/C=C/c1cnc2ccccc2n1	5.7%
COc1ccc(NC(=O)C2Cc3ccccc3O/C2=N\O)cc1 (centres undefined)	3.6%
COc1ccc(NC(=O)CSc2nnc(C)n2N)cc1S(=O)(=O)N1CCCCC1	0.6%
CC(C)n1cc(CN2CCN(CCc3ccccc3)C(CCO)C2)cn1 (centres undefined)	13.1%
Cc1cccc(C)c1NC(=O)CCCn1c(=O)c2cccn2c2ccccc21	-0.2%
Cc1cc2c(cc1C)NC(CC(=O)NCc1ccccc1)C(=O)N2 (centres undefined)	19.2%
CC(Oc1ccccc1)C(=O)N1CCN(C(=O)C(C)Oc2ccccc2)CC1 (centres undefined)	-3.3%
Cn1nc(C(F)(F)F)c(-c2cccc(C(F)(F)F)c2)c1NC(=O)c1cccnc1	-11.4%
O=C(NC1CCN(Cc2ccccc2)CC1)c1ccc(S(=O)(=O)NCc2ccco2)cc1	-0.8%
O=C(c1cc(NC(=O)C23CC4CC(CC(C4)C2)C3)cc(NC(=O)C23CC4CC(CC(C4)C2)C3)c1)N1CCCCC1	-8.4%
CC(C)Cc1cc(C(=O)N(C)C2CCCN(Cc3ccccc3F)C2)n(C)n1 (centres undefined)	-11.8%
O=C(Nc1cccc(C(=O)O)c1)/C(=C\c1ccc2c(c1)OCO2)NC(=O)c1ccccc1Cl	-2.6%
Clc1ccc(Oc2ccccc2)c2ncccc12	?
CCN(CC)c1ccc(C(=O)OCC(=O)Nc2sccc2C#N)cc1	1.7%
O=c1c(-c2cc(F)cc(F)c2)nc2cncnc2n1Cc1ccccc1Cl	-26.7%
COc1ccc2nc(NC(=O)Cc3ccc(OC)c(S(=O)(=O)N4CCOCC4)c3)sc2c1	-6.9%
CC(=O)c1cccc(S(=O)(=O)NCCC(=O)Nc2ccc(S(N)(=O)=O)cc2)c1	-13.6%
Cc1ccc(NC(=O)COC(=O)C2(C)CC2(Cl)Cl)cc1S(=O)(=O)N1CCOCC1 (centres undefined)	-5.6%
COc1ccc(C)cc1S(=O)(=O)NC1CCCCC1C (centres undefined)	-25.5%
O=C(COC(=O)c1cc(Cl)ccc1O)Nc1ccc2c(c1)OCCO2	-4.7%
CN(C)c1nc(NC(C)(C)C)nc(SCC(=O)Nc2ccccc2)n1	-10.0%
Cc1nc(Nc2cccc(Cl)c2)c2oc3ccccc3c2n1	-14.2%
COC(=O)c1cc2occc2n1Cc1nc(-c2ccccc2)oc1C	-3.8%
COc1ccc(Oc2ncc3nc(C)c(=O)n(CCc4ccccc4)c3n2)cc1	-12.7%
CCCCNC(=S)N/N=C1\C(=O)c2cccc3cccc1c23	1.6%
Clc1ccc(-c2cc(COc3ccccc3)on2)cc1	-1.5%
Cn1nc(C(=O)N2CCN(c3cccc(Cl)c3)CC2)c2c1-c1ccccc1S(=O)(=O)C2	-8.9%&4.0%
Cc1cccc(N2CCN(C(=S)Nc3ccc4nc5n(c(=O)c4c3)CCCCC5)CC2)c1C	-9.2%
O=C1CC(c2ccccc2)n2nc(N3C(=O)CCC3=O)nc2N1 (centres undefined)	-8.8%
CC(C)NC(=O)C(=O)NCC(c1ccc2c(c1)OCO2)N1CCOCC1 (centres undefined)	12.2%
